Compound activity deposited in PubChem BioAssay by National Center for Advancing Translational Sciences (NCATS).
2A Renilla: FMDV 2A StopGo reporter, Renilla signal; HEK cells with a luciferase reporter of 2A StopGo recoding; Potency, µM (highest dose often 57.5 µM), without a hit: at the highest dose signal change, negative = less light; 120,000 tested, 0.32% active; AID 1745857; active means well fitted falling curve with a large enough effect; inconclusive means small, poorly fitted or top-dose-only effect; inactive means no such curve, though single readings can be large or run the other way; also: nearly all actives have a fitted effect of over 55% in size; overnight with compound
2A firefly: lowers the firefly signal of an FMDV 2A StopGo reporter; HEK cells with a luciferase reporter of 2A StopGo recoding; Potency, µM (highest dose often 57.5 µM), for inactives: at the top dose signal change, negative = less light; 120,000 tested, 0.23% active; active = well fitted falling curve with a large enough effect; inconclusive = small, poorly fitted or top-dose-only effect; inactive = no such curve, though single readings can be large or run the other way; also: nearly all actives have a fitted effect of over 60% in size; overnight with compound
* marks the source's active call; other numbers are inactive results; u = inconclusive; & = joins results of further samples; [ ] = dose if it differs, or a comment. % is scaled to controls: 0 for no effect and ±100 for the full control effect; potency is read from the fitted curve at half-maximal effect. These rows are one share of the data; count on the stated rates, not on these rows.

SMILES	2A Renilla	2A firefly
O=C(NCc1ccc(C(=O)N2CCCCCC2)cc1)c1cc(=O)[nH]c2ccccc12	-4.7%	-21.6%
COc1ccc(OC)c(CNC(=O)c2ccc(Sc3ccc(C)cc3)c(N)c2)c1	-5.0%	-34.7%
O=CN1CCN(C(=O)Cn2ccc3c(Cl)cccc32)CC1	-7.1%	-4.2%
CC(C)c1ccc(NC(=O)c2cnc3sc(N4CCCC4)nn3c2=O)cc1	u	-10.7%
CCOc1ccc(NC(=O)COc2ccc(C(C)C)cc2-n2cnnc2)cc1	-0.8%	19.9%
COc1cc(OC)cc(OC(=O)c2cc(OC)cc(OC)c2)c1	13.1%	8.1%
O=C(NNC(=S)Nc1ccccc1)c1ccc(F)cc1	38.8%[activator]	185.6%[activator]
Cc1ccc(C(=O)NCCCN2CCCC2)cc1	-13.7%	16.3%
CCOc1ccccc1NC(=O)c1c2c(nc3ccccc13)C(=O)N(C1CCCCC1)C2	-4.1%	-23.6%
CCCc1noc(-c2ccc(NCc3ccc(C)cc3)c([N+](=O)[O-])c2)n1	u	u
COc1ccc(CCCc2nnc(SCC(=O)Nc3ccc(OC)cc3)o2)cc1	-17.1%&4.3%	11.2%&36.2%
COc1ccc(C)cc1NC(=O)Cn1c(C)nc2c(sc3cccc(F)c32)c1=O	32.3%	48.3%[activator]
Cc1ccc(OCC(O)Cn2nc(C)c3ccccc3c2=O)cc1 (stereo unspecified)	-2.8%	4.3%
CCC1CN(S(=O)(=O)c2cc(-c3cc(C)no3)ccc2C)c2cc(Cl)ccc2O1 (stereo unspecified)	-9.8%	-27.4%
CCCCS(=O)(=O)NCCc1ccc(C(=O)O)cc1	-12.5%	-5.9%

Six records picked at random from the list so far, as already listed:
SMILES	2A Renilla	2A firefly
Cc1ccc(C(=O)NCCCN2CCCC2)cc1	-13.7%	16.3%
COc1cc(OC)cc(OC(=O)c2cc(OC)cc(OC)c2)c1	13.1%	8.1%
CCC1CN(S(=O)(=O)c2cc(-c3cc(C)no3)ccc2C)c2cc(Cl)ccc2O1 (stereo unspecified)	-9.8%	-27.4%
O=C(NNC(=S)Nc1ccccc1)c1ccc(F)cc1	38.8%[activator]	185.6%[activator]
CCCCS(=O)(=O)NCCc1ccc(C(=O)O)cc1	-12.5%	-5.9%
CCCc1noc(-c2ccc(NCc3ccc(C)cc3)c([N+](=O)[O-])c2)n1	u	u

The list continues.
SMILES	2A Renilla	2A firefly
CCCCCc1ccc(C(=O)O)nc1	5.6%	24.0%
COc1cccc(NS(=O)(=O)c2cc(-c3cnc(C4CC4)o3)ccc2C)c1	132.5%&24.8%[activator]	u
Cc1[nH]c2ccccc2c1C(=O)C(=O)NC(C)CCc1ccccc1 (stereo unspecified)	61.4%[activator]	-7.8%
COc1cccc(Oc2c(C)oc3cc(OC(=O)N4CCOCC4)ccc3c2=O)c1	18.5%	20.2%
Cc1ccc(Sc2ccc(N3CCC(C(=O)Nc4cc(C)cc(C)c4)CC3)nn2)cc1	-8.1%	-6.7%
COc1cccc2c1Oc1ncccc1N(C(=O)CCC(=O)NCCC(C)C)C2	-6.0%	-11.9%
CCOC(=O)c1ccccc1NC(=O)CCc1c(C)nc2ncnn2c1C	-7.7%	-14.2%
CN(C)CCCNC(=O)CCNc1nc(Cl)nc2nc[nH]c12	-7.8%	-1.6%
Cc1ccc(-c2nnn3c2nc(NCc2ccc4c(c2)OCO4)c2ccccc23)cc1	2.0%	141.3%[activator]
COc1ccc2nc3sc(C(=O)N4CCN(c5ccc(F)cc5)CC4)cc3cc2c1	-12.8%	-33.0%
COC(=O)c1ccc(NC(=O)CSc2nccn2Cc2ccccc2)cc1	6.9%	0.0%
Cc1cc(F)ccc1NCC(=O)N1CCN(S(C)(=O)=O)CC1	-5.8%	3.2%
CCOc1ccccc1NC(=O)CSC1=Nc2ccccc2C2=NC(CC(=O)NCc3ccc4c(c3)OCO4)C(=O)N12 (stereo unspecified)	0.0%	-4.8%
Cc1ccc(CNc2nc(-c3cccs3)nn2C(=O)CC(C)C)o1	-5.0%	74.3%[activator]
COc1cccc(NC(=O)CCc2nnc3n(CCc4ccccc4)c(=O)c4ccccc4n23)c1	0.2%	49.5%[activator]
Cc1c(Cl)cccc1NC(=S)NCC(C)N1CCCCC1C (stereo unspecified)	7.4%	-14.1%
Cc1oc(-c2cccc(Cl)c2)nc1CSc1nncn2c1cc1occc12	-11.2%	-8.4%
CCOc1ccc(-c2nc(CN(CCO)Cc3csc(-c4ccc(OCC)c(OC)c4)n3)cs2)cc1OC	5.0%	7.9%
CCOC(=O)C1=C(CN(CCOC)Cc2ccco2)NC(=O)NC1c1ccc(C)cc1 (stereo unspecified)	10.9%	3.0%
COc1ccc2c(CNCCc3ccco3)c(C(=O)O)n(Cc3ccccc3)c2c1	47.5%[activator]	-21.0%
Cc1nc2cc(NC(C)C(=O)Nc3ccccc3C)ccc2o1 (stereo unspecified)	7.2%	11.3%
COc1cc(NS(=O)(=O)c2ccc(NC(=O)c3ccccc3C(=O)O)cc2)nc(OC)n1	33.6%[activator]	-3.2%
CCn1c(CNC(=O)c2ccccc2OC)nnc1SCC(=O)c1ccc(OC)cc1	4.7%	11.1%
COC(=O)c1nc2n(n1)C(c1ccccc1Cl)C(C(=O)Nc1ccc(Cl)cc1)=C(C)N2 (stereo unspecified)	-4.5%	3.8%
Cc1ccc(N(CC(=O)N2CCN(c3ccccc3)CC2)S(=O)(=O)c2c(C)noc2C)cc1	-8.4%	-19.1%
CCOc1cc(/C=C/c2cc(C(=O)O)c3ccccc3n2)ccc1OC	10.3%	178.5%[activator]
COc1ccc(/C=C2\Oc3cc(OS(=O)(=O)c4ccccc4)ccc3C2=O)cc1OC	17.2%	7.0%
COC(=O)C1CN(Cc2ccc(OC)cc2)CCS(=O)(=O)N1Cc1cn(CCOC(C)=O)nn1 (stereo unspecified)	-6.0%	-3.5%
COc1ccc(C2=Nc3ccc(F)cc3NC(c3cccc(C(F)(F)F)c3)=N2)cc1	40.3%[activator]	0.0%
COCCNC(=O)CCn1c(=O)c2cc(OC)c(OC)cc2n(CC(=O)Nc2ccc(Cl)cc2F)c1=O	-11.8%	-26.3%

Grouped by structure, the entries above containing a thiophene ring, fused or not (three)
SMILES	2A Renilla	2A firefly
COc1ccc(C)cc1NC(=O)Cn1c(C)nc2c(sc3cccc(F)c32)c1=O	32.3%	48.3%[activator]
COc1ccc2nc3sc(C(=O)N4CCN(c5ccc(F)cc5)CC4)cc3cc2c1	-12.8%	-33.0%
Cc1ccc(CNc2nc(-c3cccs3)nn2C(=O)CC(C)C)o1	-5.0%	74.3%[activator]

Additional compounds follow.
SMILES	2A Renilla	2A firefly
O=c1oc2ccc(Cl)cc2cc1-c1nc(-c2cccs2)no1	-5.7%	-10.1%
Cc1ccc(-n2nc(C(=O)N3CCN(c4cccc(C(F)(F)F)c4)CC3)c(=O)n(C)c2=O)cc1	-5.1%	-3.9%
Cc1cccc(NC(=O)COc2cccc3c(=O)n(C)ccc23)c1C	u	-26.5%
O=C(NCc1ccccn1)c1ccc(Br)cc1	16.1%	69.2%[activator]
Cc1ccc(C)c(N2CCN(S(=O)(=O)c3c(C)nc4sccn4c3=O)CC2)c1	-2.9%	-11.8%
O=C(Cn1c(=O)c2c(ncn2C2CCCC2)n(Cc2ccccc2)c1=O)NCCc1ccc(F)cc1	-3.6%	-11.3%
CCn1c(SCc2noc(-c3ccc(Cl)cc3)n2)nnc1N1CCOCC1	u	u
CCc1ccccc1NC(=O)Cn1c(=O)n(-c2ccc(C)cc2)c(=O)c2cc(OC)c(OC)cc21	-10.8%	-16.4%
Cc1ccc(NC(=O)CSc2nc(-c3ccco3)cc(C(F)(F)F)n2)cc1	62.6%[activator]	25.0%
Cc1ccc(C)c(C(C)NC(=O)COc2ccccc2C#N)c1 (stereo unspecified)	14.8%	0.0%
Cn1c(=O)c2cn(S(=O)(=O)c3ccc4c(c3)CCCC4)nc2n(C)c1=O	4.5%	14.7%
Cc1ccc(-c2noc(C(C)NS(=O)(=O)c3ccc(C)cc3)n2)cc1 (stereo unspecified)	16.6%	-6.5%
CC(O)CSc1nc2c(c(=O)[nH]c(=O)n2C)n1CCc1ccccc1 (stereo unspecified)	-0.2%	14.7%
Cc1ccc(-c2ccc(C(N)=O)o2)cc1	22.3%	158.9%[activator]
COc1ccc(NC(=O)c2c(NCc3cccc(F)c3)sc3c2CCCC3)c(OC)c1	-6.4%	u
CCn1c2ccccc2c2nnc(SCC(=O)O)nc21	-3.8%	-21.0%
CCS(=O)(=O)c1nc(S(=O)(=O)c2ccc(C)cc2)c(NC(C)c2ccccc2)s1 (stereo unspecified)	185.2%[activator]	14.7%
CCOc1ccc(CN2C(=O)c3ccccc3C2C(=O)NCCc2ccc(OC)c(OC)c2)cc1 (stereo unspecified)	59.0%[activator]	-14.0%
CCOC(=O)c1ccc(NC(=O)CCS(=O)(=O)c2ccc3c(c2)oc(=O)n3C)cc1	-10.2%	-9.6%
COc1ccc(C(=O)Nc2ccc(-c3nnc4n3CCCCC4)cc2)cc1OC	6.4%	2.8%
COC(=O)[C@@H](Cc1ccccc1)NC(=O)NCC(c1ccccc1)c1ccccc1	-2.0%	-9.4%
CC(C)(C)c1ccc(C2Sc3ccccc3NC3=C2C(=O)c2ccccc23)cc1 (stereo unspecified)	-1.3%	u
Cc1ccc(F)cc1NC(=O)Cc1nc(-c2cccs2)oc1C	44.5%[activator]	13.6%
CC(NC(=O)CSc1n[nH]c(-c2ccccc2Cl)n1)c1nc2ccccc2[nH]1 (stereo unspecified)	-12.2%	-2.3%
Cc1ccc(NC(=O)COc2c(CO)cc(F)cc2CO)cc1	-0.3%	0.0%
COc1cc(C)c(S(=O)(=O)N2CCN(c3ccccc3)CC2)cc1C	71.2%[activator]	69.7%[activator]
COc1ccc(C(=O)c2oc3ccccc3c2NC(=O)COc2cccc(C)c2C)cc1	-8.5%	-16.8%
COc1cc(C2CC(=O)c3c([nH]c(C(=O)OCc4ccc(C)cc4)c3C)C2)cc(OC)c1OC (stereo unspecified)	2.6%	u
O=S(=O)(Cc1ccc(F)cc1)Nc1nc2c(s1)CCCC2	226.5%[activator]	170.6%[activator]
COc1cccc(NC(=O)CC2Nc3cc(C)c(C)cc3NC2=O)c1 (stereo unspecified)	-4.9%	28.4%

One compound at a time, from the list above:
Record of CCS(=O)(=O)c1nc(S(=O)(=O)c2ccc(C)cc2)c(NC(C)c2ccccc2)s1 (stereo unspecified) : 2A Renilla = 185.2%[activator]; 2A firefly = 14.7%
Record of COc1cccc(NC(=O)CC2Nc3cc(C)c(C)cc3NC2=O)c1 (stereo unspecified) : 2A Renilla = -4.9%; 2A firefly = 28.4%
Record of COC(=O)[C@@H](Cc1ccccc1)NC(=O)NCC(c1ccccc1)c1ccccc1 : 2A Renilla = -2.0%; 2A firefly = -9.4%

(next part)
SMILES	2A Renilla	2A firefly
O=C1CSC2(C(=O)Nc3ccccc32)N1c1ccc(Cl)cc1 (stereo unspecified)	-9.7%	-7.9%
COc1ccccc1Cc1nnc(NC(=O)C2CCCO2)s1 (stereo unspecified)	6.0%	0.0%
O=c1cc(CN2CCN(c3cccc(Cl)c3)CC2)c2cc(Cl)ccc2o1	-1.8%	-5.8%
CC(C)(C)C(=O)/C(C#N)=C/c1ccccc1OCc1ccccc1Cl	27.5%	30.5%[activator]
Cc1ccc(Cl)cc1N1CCN(C(=O)C2CCN(S(=O)(=O)c3c(C)noc3/C=C/c3ccccc3F)CC2)CC1	-3.4%	-29.0%
C=CCOC(=O)C1C(=O)CC(C)(O)C(C(=O)OCC=C)C1c1ccc(Cl)cc1 (stereo unspecified)	22.6%	52.5%[activator]
Cc1cccn2c(=O)c(C(=O)N3CCN(c4ccccc4)CC3)cnc12	3.5%	50.6%[activator]
O=C(NCCC1CCCO1)c1cc(-c2ccncc2)nc2ccccc12 (stereo unspecified)	4.8%	20.4%
O=c1c2ccccc2ncn1Cc1coc(-c2cccs2)n1	7.1%	20.2%
CCn1c(SCC(=O)c2ccc(Cl)cc2)nc2c1c(=O)[nH]c(=O)n2C	-13.0%	-11.1%
O=C(NCc1cccn1Cc1ccc(F)cc1)Nc1ccc(F)cc1F	78.9%[activator]	12.3%
